MLL AF4-AF9 inh = blocks AF4 peptide binding to human AF9 | AlphaScreen, biotin-AF4 peptide binding to FLAG-AF9 | hit rate 0.47% among 350,000 | inhibition, % at 10 µM | P42568;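 active = every replicate reaching a set inhibition limit, whatever the replicate mean, cut at about 25% in these data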;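 note: 0% = plate neutral control median and 100% = total signal loss; the record names both 10 and 1 µM as test concentration; the first replicate is given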
Target sequence (P42568 whole entry, looked up): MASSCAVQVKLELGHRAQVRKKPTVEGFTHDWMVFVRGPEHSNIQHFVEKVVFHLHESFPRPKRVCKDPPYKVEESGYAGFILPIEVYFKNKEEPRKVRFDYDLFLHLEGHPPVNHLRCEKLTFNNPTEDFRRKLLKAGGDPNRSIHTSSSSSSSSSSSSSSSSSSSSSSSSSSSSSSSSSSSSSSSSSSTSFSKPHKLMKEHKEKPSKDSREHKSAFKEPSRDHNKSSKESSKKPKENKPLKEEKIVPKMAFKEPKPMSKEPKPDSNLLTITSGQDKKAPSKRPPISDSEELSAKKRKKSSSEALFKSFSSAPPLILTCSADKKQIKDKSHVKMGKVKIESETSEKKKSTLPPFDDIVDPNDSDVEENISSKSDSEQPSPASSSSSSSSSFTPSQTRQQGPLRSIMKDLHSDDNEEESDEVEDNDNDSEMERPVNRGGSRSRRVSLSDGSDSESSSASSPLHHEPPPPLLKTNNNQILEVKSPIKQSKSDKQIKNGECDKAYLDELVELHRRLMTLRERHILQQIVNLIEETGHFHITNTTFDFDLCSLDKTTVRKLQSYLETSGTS
Ecoli rRNA inh = selective bacterial rRNA inhibition in E. coli | E. coli WT GFP vs humanized-ribosome RFP mutants, fluorescence, 24 h; hits give low values; DMSO median 0, no signal -100 | GFP signal change (wild-type ribosome), % (no concentration beside the values) | hit rate 1.6% among 350,000 | AID 720706;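 active = significant combined selectivity score with lowered wild-type GFP, culture density cut under 30%, mutant RFP and density less affected; inactive = any of these conditions unmet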; note: one replicate is shown; some compounds called inactive have numbers as strong as hits
FGF22 binding = shifts melting point of recombinant human FGF22 | Q9HCT0 | recombinant FGF22 thermal shift, SYPRO orange fluorescence; percent of sucrose octasulfate shift, DMSO zero | calls only at 9.99 µM | hit rate 1.5% among 340,000;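 active = melting point raised past a set limit in the mean and every replicate; three in four hits are not shown here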
Target sequence (Q9HCT0 whole entry, looked up): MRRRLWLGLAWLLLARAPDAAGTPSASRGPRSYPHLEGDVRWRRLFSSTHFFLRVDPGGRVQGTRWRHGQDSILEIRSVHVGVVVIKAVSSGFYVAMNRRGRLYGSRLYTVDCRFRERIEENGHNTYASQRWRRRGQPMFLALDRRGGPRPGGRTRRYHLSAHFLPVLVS
Ecoli rRNA inh OD600 = second read-out of Ecoli rRNA inh, no call of its own (marks repeat the call); OD600 change, %; measured here: OD600 growth;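 optical density of the mix in the first replicate; 0 = DMSO median and -100 = no signal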
Ecoli rRNA inh RFP = second read-out of Ecoli rRNA inh, no call of its own (marks repeat the call); RFP signal change, %; measured here: RFP humanized mutant strains;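 first replicate; 0 = DMSO median and -100 = no signal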
Numbers without * were called inactive; i = inactive; & = joins results of further samples. This is a subset; the hit share may differ from the screen's.

SMILES,FGF22 binding,Ecoli rRNA inh RFP,Ecoli rRNA inh,Ecoli rRNA inh OD600,MLL AF4-AF9 inh
C[C@H](CO)N1C[C@H](C)[C@H](CN(C)C(=O)Nc2cccc3ccccc23)Oc2ccc(NC(=O)C3CC3)cc2C1=O,i,0.6,2,-1,-1.3
COc1ccccc1S(=O)(=O)N1C[C@@H](O)COC[C@H]2O[C@H](CC(=O)O)CC[C@@H]21,i,-2.9,3,-3,-12
COc1ccc(S(=O)(=O)N(C)C[C@@H]2Oc3c(NC(=O)NC4CCCCC4)cccc3C(=O)N([C@H](C)CO)C[C@@H]2C)cc1,i,-0.6,-1,-5,1.2
COc1ccc(NC(=O)Nc2ccc3c(c2)[C@H]2C[C@@H](CC(=O)N4CCc5ccccc5C4)O[C@@H](CO)[C@H]2O3)cc1,i,0.5,-2,0,1.6
C[C@@H]1CN([C@@H](C)CO)C(=O)c2cccc(NC(=O)C3CCCCC3)c2O[C@@H]1CN(C)S(=O)(=O)c1ccc(Cl)cc1,i,0.2,-5,-3,5.9
CCCCn1nnnc1C(c1ccccc1)N1CCN(c2cccc(C)c2C)CC1 (centres undefined),i,-4.1,4,8,-0.2
C[C@@H]1CCCCO[C@@H](CN(C)C(=O)c2ccncc2)[C@@H](C)CN([C@H](C)CO)C(=O)c2cc(NC(=O)Cc3ccccc3)ccc2O1,i,1.6&-5.3,17&2,8&4,4.0&0.5
C[C@H](CO)N1C[C@H](C)[C@@H](CN(C)C(=O)c2ccccn2)Oc2cc(C3=CCCC3)ccc2S1(=O)=O,i,-0.9,2,-4,-3.5
CCCNC(=O)N(C)C[C@@H]1Oc2ncc(Br)cc2C(=O)N([C@H](C)CO)C[C@H]1C,i,-4.0,5,0,-3.6
Cc1ccc(CN(C)C[C@@H]2OCc3cnnn3CCCC(=O)N([C@@H](C)CO)C[C@@H]2C)cc1,i,-1.3,2,2,0.2
C[C@@H]1CN([C@H](C)CO)C(=O)c2cc(NC(=O)CCCCCC(=O)Nc3ccccc3N)ccc2O[C@@H]1CN(C)S(=O)(=O)c1cn(C)cn1,i,-1.2,0,-5,-0.6
CCC(=O)Nc1ccc2c(c1)OC[C@@H](C)N(Cc1nccs1)C[C@@H](C)[C@@H](OC)CN(C)C2=O,i,-0.4,-2,-5,-2.2

Just MLL AF4-AF9 inh, Ecoli rRNA inh RFP and Ecoli rRNA inh, for some of the entries so far:
smiles | MLL AF4-AF9 inh | Ecoli rRNA inh RFP | Ecoli rRNA inh
C[C@@H]1CCCCO[C@@H](CN(C)C(=O)c2ccncc2)[C@@H](C)CN([C@H](C)CO)C(=O)c2cc(NC(=O)Cc3ccccc3)ccc2O1 | 4.0&0.5 | 1.6&-5.3 | 17&2
C[C@H](CO)N1C[C@H](C)[C@@H](CN(C)C(=O)c2ccccn2)Oc2cc(C3=CCCC3)ccc2S1(=O)=O | -3.5 | -0.9 | 2

Reprinted at random: 2 compounds from above, in no set order.
SMILES,FGF22 binding,Ecoli rRNA inh RFP,Ecoli rRNA inh,Ecoli rRNA inh OD600,MLL AF4-AF9 inh
C[C@H](CO)N1C[C@H](C)[C@@H](CN(C)C(=O)c2ccccn2)Oc2cc(C3=CCCC3)ccc2S1(=O)=O,i,-0.9,2,-4,-3.5
Cc1ccc(CN(C)C[C@@H]2OCc3cnnn3CCCC(=O)N([C@@H](C)CO)C[C@@H]2C)cc1,i,-1.3,2,2,0.2

(further entries)
SMILES,FGF22 binding,Ecoli rRNA inh RFP,Ecoli rRNA inh,Ecoli rRNA inh OD600,MLL AF4-AF9 inh
COCC(=O)N(C)C[C@H]1Oc2ncc(C#C[C@H](C)O)cc2C(=O)N([C@@H](C)CO)C[C@@H]1C,i,1.7,2,4,-1.2
C[C@H](CO)N1C[C@H](C)[C@@H](CN(C)Cc2ccc3c(c2)OCO3)Oc2ccc(NC(=O)Nc3ccc(C(F)(F)F)cc3)cc2CC1=O,i,5.6,1,-28,2.4
C[C@H](NC(=O)C[C@@H]1CC[C@@H]2[C@H](COC[C@@H](O)CN2C(=O)Nc2ccccc2)O1)c1ccccc1,i,-3.5,-2,-6,-0.6
COc1ccc(C(O)c2nc(-c3ccccc3C)cs2)cc1 (centres undefined),i,-2.6,2,-15,-5.7
COc1ccc(C=O)c(-c2c(-c3ccccc3OC)sc3ccccc23)c1,i,5.7,13,9,0.0
C[C@H](CO)N1C[C@H](C)[C@@H](CN(C)Cc2ccc(C(F)(F)F)cc2)Oc2c(NS(=O)(=O)c3ccc(F)cc3)cccc2C1=O,i,1.2,2,8,2.4
CC(C)(C)NC(=O)C(c1ccc(-c2ccccc2)cc1)n1c(=O)c(-c2cc3ccccc3[nH]2)nc2ccccc21 (centres undefined),i,0.5,7,0,-33
CO[C@H]1CN(C)C(=O)c2ccc(NC(=O)C3CC3)cc2OC[C@H](C)N(CCC(F)(F)F)C[C@@H]1C,i,1.7,-2,-2,2.3
C[C@@H]1CN([C@H](C)CO)C(=O)c2cccc(NC(=O)C3CC3)c2O[C@H]1CN(C)C(=O)Nc1ccc(C(F)(F)F)cc1,i,-0.4,-1,1,-2.1
CCCNC(=O)CSc1ccc(S(=O)(=O)N(C)C2CCCCC2)cn1,i,-1.1,-2,-18,3.5
CO[C@@H](CN(C)C(=O)c1cnccn1)[C@H](C)CN([C@@H](C)CO)S(=O)(=O)c1ccc(Cl)cc1,i,2.6,0,9,-0.6
COc1cccc(C(=O)Nc2ccc3c(c2)C(=O)N(C)[C@@H]2CC[C@H](CC(=O)N[C@H](C)c4ccccc4)O[C@H]2CO3)c1,i,1.1,2,6,0.6

(listing goes on)
SMILES,FGF22 binding,Ecoli rRNA inh RFP,Ecoli rRNA inh,Ecoli rRNA inh OD600,MLL AF4-AF9 inh
Cc1noc(C)c1NC(=O)N(C)C[C@@H]1Oc2ccc(NC(=O)Nc3cccc4ccccc34)cc2C(=O)N([C@H](C)CO)C[C@H]1C,i,-1.0,-1,-16,4.0
CNc1nc(-c2cccc(C(=O)N(C)C)c2)cn2ccnc12,i,-0.4,14,3,-1.8
CO[C@H]1CN(C)C(=O)c2cc(NS(C)(=O)=O)ccc2OC[C@H](C)N(C(=O)c2ccc3c(c2)OCO3)C[C@@H]1C,i,-2.4,3,3,-0.2
COc1ccc(CN(C)C[C@H]2Oc3c(NS(C)(=O)=O)cccc3C(=O)N([C@H](C)CO)C[C@H]2C)cc1,i,1.6,5,10,-1.3
C[C@@H]1CCCCO[C@@H](CN(C)C)[C@@H](C)CN([C@H](C)CO)C(=O)c2cc(NC(=O)Nc3ccc(C(F)(F)F)cc3)ccc2O1,i,29,-28,-66,2.2
O=C(C1CCOCC1)N1C[C@H]2[C@@H](c3ccccc31)[C@@H](CO)N2C(=O)Nc1cccc(F)c1,i,-3.1,3,6,-0.3
O=C(N[C@H]1CC[C@H](CCNS(=O)(=O)c2ccc(F)cc2)O[C@H]1CO)C1CCCC1,i,-0.3,2,4,-0.7
CC(=O)N1CC2(C1)[C@@H](c1ccc(-c3ccc(C#N)cc3)cc1)[C@H](CO)N2C(=O)C1CC1,i,-4.5,-4,-3,0.1
C[C@@H]1CN([C@@H](C)CO)C(=O)c2cc(NS(=O)(=O)c3ccccc3)ccc2O[C@@H]1CN(C)Cc1ccc(-c2ccccc2)cc1,i,21,0,-11,1.1
CCS(=O)(=O)N1CCC2(CC1)CN(C(=O)c1ccc(F)cc1)[C@@H](CO)c1[nH]c3cc(OC)ccc3c12,i,-1.0,1,-1,1.4
O=C(C[C@@H]1CC[C@@H]2NC[C@@H](O)COC[C@H]2O1)N1CCc2ccccc2C1,i,-5.2,12,17,-13
COc1ccc(S(=O)(=O)N(C)C[C@@H]2Oc3ccc(NC(=O)C4CC4)cc3CC(=O)N([C@H](C)CO)C[C@H]2C)cc1,i,0.3,2,2,-11

(further entries)
SMILES,FGF22 binding,Ecoli rRNA inh RFP,Ecoli rRNA inh,Ecoli rRNA inh OD600,MLL AF4-AF9 inh
Cc1noc(C)c1NC(=O)N(C)C[C@H]1OCCCC[C@@H](C)Oc2ccc(NC(=O)Nc3ccc4c(c3)OCO4)cc2C(=O)N([C@@H](C)CO)C[C@H]1C,i,1.0,2,-3,3.6
COc1ccccc1NC(=O)N1[C@H](C#N)[C@H](c2ccccc2)[C@@H]1CO,i,2.4,-1,-7,-1.7
C[C@H]1CN([C@@H](C)CO)C(=O)c2cc(NC(=O)CCN3CCOCC3)ccc2O[C@H]1CN(C)Cc1ccc(C(=O)Nc2ccccc2N)cc1,i,-0.6,1,1,1.9
C[C@H](CO)N1C[C@H](C)[C@@H](CN(C)S(=O)(=O)c2cccs2)OCCCC[C@H](C)Oc2ccc(NS(C)(=O)=O)cc2C1=O,i,1.3,-6,-4,-6.9
C[C@H](CO)N1C[C@H](C)[C@@H](CN(C)Cc2ccccc2)Oc2ccc(NC(=O)Nc3ccc(C(F)(F)F)cc3)cc2C1=O,i,-4.2,1,4,4.7
C[C@H]1CN([C@@H](C)CO)C(=O)Cc2cc(NC(=O)Nc3ccc(C(F)(F)F)cc3)ccc2O[C@H]1CN(C)Cc1ccncc1,i,29,-20,-42,1.9
COc1ccc(S(=O)(=O)Nc2ccc3c(c2)C(=O)N([C@@H](C)CO)C[C@H](C)[C@H](CN(C)S(=O)(=O)c2cccs2)OCCCC[C@@H](C)O3)cc1,i,-2.1,1,2,0.9
CCC(=O)Nc1ccc2c(c1)OC[C@@H](C)N(C(=O)c1ccccc1F)C[C@@H](C)[C@@H](OC)CN(C)C2=O,i,0.5,0,3,-1.8
CCN(CC)C(=O)C1=C(C)N(CCCN2CCCC2=O)C(=O)C(CC(=O)NCc2cccc3ccccc23)C1 (centres undefined),i,2.4,5,9,-1.0
Cc1ccc(S(=O)(=O)Nc2ccc3c(c2)C(=O)N([C@H](C)CO)C[C@@H](C)[C@H](CN(C)S(=O)(=O)c2cn(C)cn2)O3)cc1,i,-1.6,1,-3,1.3
Cc1ccccc1C(=O)NCC(=O)OCC(=O)NNC(=O)c1ccccc1F,i,0.5,1,7,-0.3
CC(C)NC(=O)Nc1ccc2c(c1)C(=O)N([C@@H](C)CO)C[C@@H](C)[C@@H](CN(C)S(=O)(=O)c1ccc(Cl)cc1)O2,i,-1.8,-3,-5,-0.1

Going on with the list:
SMILES,FGF22 binding,Ecoli rRNA inh RFP,Ecoli rRNA inh,Ecoli rRNA inh OD600,MLL AF4-AF9 inh
C[C@@H]1CN([C@H](C)CO)C(=O)c2cc(-c3ccncc3)cnc2O[C@H]1CN(C)C(=O)NC1CCCC1,i,0.0,1,9,0.2
O=C(C[C@H]1C[C@@H]2c3cc(NC(=O)c4ccc5c(c4)OCO5)ccc3O[C@@H]2[C@@H](CO)O1)NCc1cccc(F)c1,i,5.1,-11,-26,-1.3
C[C@H](CO)N1C[C@H](C)[C@H](CN(C)S(C)(=O)=O)Oc2cc(-c3ccc(F)cc3)ccc2S1(=O)=O,i,2.0,-8,-18,-2.7
C[C@@H]1CN([C@@H](C)CO)C(=O)c2cccc(NC(=O)Nc3ccccc3)c2O[C@H]1CN(C)Cc1ccncc1,i,-1.3,-1,0,-1.2
CCCNC(=O)N(C)C[C@@H]1Oc2cc(C#CCOC)ccc2S(=O)(=O)N([C@H](C)CO)C[C@@H]1C,i,-0.8,1,0,-3.3
CC(C)NC(=O)Nc1ccc2c(c1)C(=O)N([C@@H](C)CO)C[C@H](C)[C@@H](CN(C)Cc1ccc(Cl)c(Cl)c1)OCCCC[C@@H](C)O2,i,0.9,0,1,4.3
C[C@@H]1CN([C@@H](C)CO)C(=O)c2cc(NC(=O)CCCN(C)C)ccc2O[C@@H](C)CCCCO[C@H]1CN(C)S(=O)(=O)c1cccs1,i,3.2,1,-3,1.3
CCC(=O)N(C)C[C@H]1Oc2cc(/C=C/c3ccccc3)ccc2S(=O)(=O)N([C@H](C)CO)C[C@@H]1C,i,1.6,-14,-24,14
C[C@@H]1CCCCO[C@H](CN(C)C(=O)Nc2ccccc2)[C@@H](C)CN([C@@H](C)CO)C(=O)c2cc(NS(C)(=O)=O)ccc2O1,i,-3.2,-2,-1,-5.1
CNC[C@H]1Oc2ccc(NC(=O)CCC(F)(F)F)cc2CC(=O)N([C@@H](C)CO)C[C@H]1C,i,-0.4,7,13,-4.8
COc1ccc(NC(=O)N(C)C[C@@H]2Oc3ccc(NS(=O)(=O)c4ccccc4)cc3CC(=O)N([C@H](C)CO)C[C@@H]2C)cc1,i,-4.9,2,0,0.2
CCCC(=O)Nc1ccc2c(c1)OC[C@@H](C)N(CC1CCCC1)C[C@@H](C)[C@@H](OC)CN(C)C2=O,i,-0.2,1,10,-2.9
COc1ccc(C(O)c2cnc(C)n2Cc2ccccc2)cc1 (centres undefined),i,-7.3,-1,3,0.6

Screening data (PubChem)
